Compound activity: PubChem BioAssay, National Center for Advancing Translational Sciences (NCATS)
TRPML1 blocker: human mucolipin-1 channel inhibition; AID 624415; activity change, negative = inhibition, % (no concentration beside the values); actives 0.02% (n = 390,000); Q9GZU1; TRPML1-inducible cells, Ca2+ dye fluorescence, FDSS; stronger effect = lower value; inhibition of EC80 agonist-evoked calcium signal; in the data active means activity change below about -50%; inconclusive means about -30% to -50%; inactive means above about -30%;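 also: stimulus is agonist 54-4 at its EC80 concentration; % is scaled to controls: 0 for no effect and ±100 for the full control effect; compound concentration not given in the record; the text of the record puts the active cut at -80%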
Target sequence (Q9GZU1 whole entry, looked up): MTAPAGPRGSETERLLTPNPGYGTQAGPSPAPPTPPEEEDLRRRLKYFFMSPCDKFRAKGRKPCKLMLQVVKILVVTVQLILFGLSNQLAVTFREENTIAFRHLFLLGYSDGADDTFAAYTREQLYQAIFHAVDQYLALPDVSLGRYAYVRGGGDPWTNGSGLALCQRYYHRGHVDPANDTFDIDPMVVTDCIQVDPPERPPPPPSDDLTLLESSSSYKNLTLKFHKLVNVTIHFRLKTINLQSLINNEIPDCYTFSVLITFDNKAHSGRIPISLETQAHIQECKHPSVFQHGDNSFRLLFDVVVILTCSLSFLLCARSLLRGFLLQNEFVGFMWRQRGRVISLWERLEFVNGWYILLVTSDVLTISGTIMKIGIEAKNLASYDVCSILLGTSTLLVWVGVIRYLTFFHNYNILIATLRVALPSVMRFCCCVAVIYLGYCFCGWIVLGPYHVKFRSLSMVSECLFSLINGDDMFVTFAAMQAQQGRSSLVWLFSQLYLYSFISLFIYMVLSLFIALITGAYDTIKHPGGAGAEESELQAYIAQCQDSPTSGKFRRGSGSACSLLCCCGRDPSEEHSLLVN
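Calcium fluorescence in TRPML1-DL cells induced overnight with Tet: a 110 s read after compound pin addition, then a 110 s antagonist read after challenge with 54-4 at 4 uM final (EC80).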
gsp agonist: activates gsp, the McCune-Albright syndrome mutation; actives 0.13% (n = 340,000); Potency, µM (top dose mostly 76.9 µM), without a hit: top-dose activation (cAMP increase), most hits filed as activators; gsp mutant cells, cAMP HTRF, 30 min; control for the full effect not named in the record; active = well fitted activation curve with a large enough effect; inconclusive = small, poorly fitted or top-dose-only effect, or another doubt; inactive = no such curve, though single readings can be large or run the other way; cell line not stated here;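 also: phosphodiesterase inhibitor Ro 20-1724 added with compounds to block cAMP breakdown; potency is read from the fitted curve at half-maximal effect; nearly all actives have a fitted effect of over 60% in size; about a fifth of the inactives were tested at one dose only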
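Cells in DMEM/10% FBS with G418 were pretreated with compounds in DMSO plus […] (300 uM stock) for 30 min at 37C. cAMP was measured by HTRF (cAMP-d2 plus anti-cAMP antibody-K) after 30 min at room temperature.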
Menin-MLL FL inh: menin-MLL binding inhibition, fluorescein peptide | Fluorescence polarization, fluorescein-MLL peptide displacement from menin | FP activity change, % at 61.4 µM | 290,000 tested, under 10 active; inconclusive = falling polarisation curve, or a change in total fluorescence; inactive = total fluorescence flat and polarisation flat or rising; no compound was filed as active; the % refers to the polarisation; negative = inhibition;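 also: % of control where 0% means no effect; inhibitors lower the polarisation; unlabelled MLL peptide was the positive control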
TRPML1 agonist: human mucolipin-1 channel agonism | Q9GZU1 | TRPML1-expressing cells, Ca2+ dye fluorescence, FDSS; host cell line not named in the record; reference of the full effect not given here | activation, % (concentration not given with the values) | actives 0.12% (n = 410,000); in the data active = activation above about 50%; inconclusive = about 30% to 50%; inactive = below about 30%; also: 0% is about no effect; the text of the record puts the active cut at 80%
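TRPML1-DL cells, Tet-induced overnight (~16 h, 37 degrees C), loaded 45-90 min at room temperature with Ca8 no-wash calcium dye plus quencher. FDSS fluorescence: 10 s baseline, compound pin-transfer, 110 s agonist read, then EC80 54-4 (4uM final) and 110 s antagonist read.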
gsp antag: gsp mutant antagonism; Potency, µM (doses to about 76.9 µM), without a hit: top-dose activity change, negative = inhibition, usual class: inhibitors; gsp-mutant cells, cAMP HTRF, 30 min; control for the full effect not named in the record; AID 624288; actives 0.4% (n = 340,000); active = falling curve of any shape with a large fitted effect; inconclusive = falling curve, mostly with a smaller effect; inactive = flat or rising curve; cell line not stated here;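 also: intracellular cAMP measured with PDE inhibitor Ro 20-1724 present during compound exposure; potency is read from the fitted curve at half-maximal effect; % is scaled to controls: 0 for no effect and ±100 for the full control effect; nearly all actives have a fitted effect of over 65% in size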
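G418-selected cells were plated in DMEM/10% FBS for 16-24 h at 37C, then treated with compounds plus the PDE inhibitor […] (300 uM solution added) for 30 min at 37C. Intracellular cAMP was measured by HTRF after 30 min lysis at room temperature.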
ClpP mod: qHTS Assay for Activators of ClpP. actives 1.9% (n = 340,000). purified B. subtilis ClpP, FRET peptide cleavage, 20 min. Potency, µM (series often up to 57.5 µM), inactives show top-dose activity change, negative = active. AID 651965, 2013. ATP-dependent Clp protease proteolytic subunit (Bacillus subtilis (strain 168)), P80244; active = well fitted falling curve with a large enough effect; inconclusive = small, poorly fitted or top-dose-only effect; inactive = no such curve, though single readings can be large or run the other way; also: potency is read from the fitted curve at half-maximal effect; the source files actives as falling curves though it sought activators and does not explain the sign; nearly all actives have a fitted effect of over 65% in size; many hits overshoot -100%
Target sequence (P80244 whole entry, looked up): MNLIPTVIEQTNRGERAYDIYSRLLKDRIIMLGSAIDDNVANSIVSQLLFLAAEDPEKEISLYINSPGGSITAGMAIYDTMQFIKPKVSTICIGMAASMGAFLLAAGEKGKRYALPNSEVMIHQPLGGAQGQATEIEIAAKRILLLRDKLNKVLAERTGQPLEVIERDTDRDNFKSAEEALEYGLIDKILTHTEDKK
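Purified B. subtilis ClpP, 10 microg/mL final in Tris/HCl pH8 with KCl, BSA, glycerol and Tween-20, cleaved an Abz/nitrotyrosine-quenched decapeptide. Fluorescence (ex 320, em 430) was read at 0 and 20 min at room temperature. Delta was normalized to 5.8 microM ADEP and DMSO/no-enzyme controls.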
* marks the source's active call; other numbers are inactive results; & = joins results of further samples; [ ] = remark or other dose.

What do the screens show for `CC(Sc1nc(-c2ccc(F)cc2)cs1)C(=O)Nc1ccc(Cl)cn1` (configuration not stated)?
TRPML1 blocker: -6; gsp agonist: 6%[15.4 µM]; Menin-MLL FL inh: 15; TRPML1 agonist: 0.1; gsp antag: -4%; ClpP mod: 9.0%

What do the screens show for `O=C(COC(=O)/C=C/c1cccc(Cl)c1)NCCc1ccccc1`?
TRPML1 blocker: 6; gsp agonist: -4%; Menin-MLL FL inh: 2.5; TRPML1 agonist: 1.1; gsp antag: 8%; ClpP mod: -14%

How did CCC(=O)Nc1ccc(NC(=O)CSc2nnnn2Cc2ccccc2)cc1C do in these assays?
TRPML1 blocker: 2; gsp agonist: -9%[15.4 µM]; Menin-MLL FL inh: -3.6; TRPML1 agonist: 0.0; gsp antag: 19%

Results for S=c1[nH]nc(-c2ccncc2)n1/N=C/c1cn(-c2ccccc2)nc1-c1ccccc1 ?
TRPML1 blocker: 5; gsp agonist: inconclusive; Menin-MLL FL inh: 0.2; TRPML1 agonist: -0.6; gsp antag: -3%; ClpP mod: -0.1%

How did CC(=O)Nc1ccc(S(=O)(=O)NNC(=O)COc2cccc3ccccc23)cc1 do in these assays?
TRPML1 blocker: -8; gsp agonist: -6%; Menin-MLL FL inh: 3.5; TRPML1 agonist: 2.7; gsp antag: 2%; ClpP mod: -0.4%

What do the screens show for `COCCn1c(=NC(=O)c2nc3ccccc3s2)sc2cc(S(C)(=O)=O)ccc21`?
TRPML1 blocker: -11; gsp agonist: 18%; Menin-MLL FL inh: 0.4; TRPML1 agonist: 0.8; gsp antag: 5%; ClpP mod: 1.7%

What do the screens show for `CCN(CC)S(=O)(=O)c1ccc(OC)c(NC(=O)c2cn(CC)c3nc(C)ccc3c2=O)c1`?
TRPML1 blocker: 0; gsp agonist: inconclusive; Menin-MLL FL inh: 0.1; TRPML1 agonist: 3.1; gsp antag: 10%; ClpP mod: -7.3%

How did COc1ccc(C(CC(=O)NCc2ccccc2)Sc2n[nH]c(-c3ccccc3)n2)cc1 (configuration not stated) do in these assays?
TRPML1 blocker: -12; gsp agonist: -27%; Menin-MLL FL inh: 3.3; TRPML1 agonist: 0.0; gsp antag: 2%; ClpP mod: 1.2%

How did CCCCN(CC)C(=O)c1nn(C)c2c1CSc1ccccc1-2 do in these assays?
TRPML1 blocker: 1; TRPML1 agonist: -0.1; ClpP mod: -0.5%

What do the screens show for `Cc1cc(C)n(-c2nc3ccccc3c(=O)n2OCC(=O)Nc2c(C)cccc2C)n1`?
TRPML1 blocker: -13; gsp agonist: inconclusive; Menin-MLL FL inh: -1.6; TRPML1 agonist: 1.6; gsp antag: -1%; ClpP mod: 1.5%

How did CNC(=S)N1CCC(n2cnc3ccccc32)CC1 do in these assays?
TRPML1 blocker: 16; gsp agonist: 3%[15.4 µM]; Menin-MLL FL inh: 5.3; TRPML1 agonist: 0.4; gsp antag: 4%

How did COc1ccc(CCNC(=O)CSc2nc(C)cc(C)n2)cc1OC do in these assays?
TRPML1 blocker: -12; gsp agonist: 2%; Menin-MLL FL inh: -8.5; TRPML1 agonist: -0.6; gsp antag: 16%; ClpP mod: 0.2%

How did CCOC(=O)c1sc(NC(=O)c2cc(-c3ccc(C)cc3)nc3ccccc23)c(C#N)c1C do in these assays?
TRPML1 blocker: 6; gsp agonist: 9%; Menin-MLL FL inh: 2.8; TRPML1 agonist: 0.3; gsp antag: 14%; ClpP mod: -15%

Results for Cc1cccnc1NC(=O)CNC(=O)COc1ccccc1 ?
TRPML1 blocker: -4; gsp agonist: -4%[15.4 µM]; TRPML1 agonist: -0.1; gsp antag: 9%

Results for O=C1OC(c2ccccc2)=C/C1=C/N1CCCCC1 ?
TRPML1 blocker: -12; gsp agonist: -20%; Menin-MLL FL inh: 19; TRPML1 agonist: 1.5; gsp antag: -15%; ClpP mod: -1.2%

What do the screens show for `COc1ccc(OCC(=O)NNC(=S)NC(=O)c2ccc(Br)o2)cc1`?
TRPML1 blocker: -1; gsp agonist: 7%; TRPML1 agonist: -0.4; gsp antag: -8%; ClpP mod: -1.1%

How did NS(=O)(=O)c1ccc(NC(=O)CN2CCN(c3ccc(F)cc3)CC2)cc1 do in these assays?
TRPML1 blocker: 9; TRPML1 agonist: -0.4; ClpP mod: -1.3%

What do the screens show for `COc1ccc2cc(C(=O)Nc3ccc(Cl)cc3)sc(=O)c2c1OC`?
TRPML1 blocker: 3; gsp agonist: 21%[15.4 µM]; Menin-MLL FL inh: 2.3; TRPML1 agonist: 0.0; gsp antag: -1%; ClpP mod: -1.4%

Results for CCOc1ccc2nc(SCC(=O)NC3CCS(=O)(=O)C3)[nH]c2c1 (configuration not stated) ?
TRPML1 blocker: -10; gsp agonist: 25%; Menin-MLL FL inh: 0.0; TRPML1 agonist: -0.4; gsp antag: 5%; ClpP mod: 0.1%

What do the screens show for `CC(C)Cn1c(/C=C/c2ccco2)nc2ccccc21`?
TRPML1 blocker: -7; gsp agonist: 2%; Menin-MLL FL inh: inconclusive; TRPML1 agonist: 0.0; gsp antag: -2%; ClpP mod: -22%

What do the screens show for `O=C(c1ccc(Cl)cc1)N1CCN(c2ccc(N3CCOCC3)nn2)CC1`?
TRPML1 blocker: 3; gsp agonist: -22%; TRPML1 agonist: -0.2; ClpP mod: 3.8%

How did O=C(NCCc1ccccc1)c1ccc(Cn2c(=O)c3cccn3c3cccnc32)cc1 do in these assays?
TRPML1 blocker: -18; TRPML1 agonist: 1.4; ClpP mod: 4.2%

Results for CCc1ccc(NC(=S)N(CCCN2CCN(C)CC2)Cc2cccs2)cc1 ?
TRPML1 blocker: 21; gsp agonist: -3%[15.4 µM]; Menin-MLL FL inh: 0.9; TRPML1 agonist: 0.1; gsp antag: -6%; ClpP mod: inconclusive

How did COC(=O)CC1C(=O)NCCN1C(=O)c1cc(OC)c(OC)cc1OC (configuration not stated) do in these assays?
TRPML1 blocker: -15; gsp agonist: inconclusive; Menin-MLL FL inh: 1.6; TRPML1 agonist: 0.5; gsp antag: 7%; ClpP mod: 0.2%

Results for OCC1OC(n2cnc3c(=S)nc[nH]c32)C(O)C1O (configuration not stated) ?
Menin-MLL FL inh: 0.5&-4.1; TRPML1 agonist: 0.0&-0.5; ClpP mod: 0.5%&-3.7%

What do the screens show for `Cc1cccc(Cn2c(=O)n(-c3ccc(CC(=O)NCc4ccco4)cc3)c(=O)c3sccc32)c1`?
TRPML1 blocker: 1; gsp agonist: 29%; Menin-MLL FL inh: -1.9; TRPML1 agonist: -0.1; gsp antag: -19%; ClpP mod: -0.9%

How did O=C(/C=C/c1ccc([N+](=O)[O-])cc1)NCc1ccccn1 do in these assays?
TRPML1 blocker: -1; gsp agonist: -35%[inhibitor]; Menin-MLL FL inh: 0.7; TRPML1 agonist: -0.3; gsp antag: 6%; ClpP mod: -2.0%

How did COc1cc(/C=C2\OC(=O)c3c(OC)cccc32)ccc1O do in these assays?
TRPML1 blocker: -4; gsp agonist: inconclusive; Menin-MLL FL inh: inconclusive; TRPML1 agonist: 2.4; gsp antag: 11%; ClpP mod: -1.9%

How did Cn1cc(/C=N\NC(=O)c2cccs2)c2ccccc21 do in these assays?
TRPML1 blocker: 5; gsp agonist: 6%[15.4 µM]; Menin-MLL FL inh: 0.9; TRPML1 agonist: 0.8; gsp antag: 7%

How did CC(C)C[C@@]12C(=O)N(c3cccc(Cl)c3)C(=O)N1[C@H](c1ccc(Cl)cc1)[C@@H]1C(=O)N(C3CCCCC3)C(=O)[C@@H]12 do in these assays?
TRPML1 blocker: 20; gsp agonist: 2%; TRPML1 agonist: -0.3; gsp antag: -2%; ClpP mod: 0.2%

What do the screens show for `COc1ccc(Nc2nc(OC)nc(N3CCOCC3)n2)cc1`?
TRPML1 blocker: -6; gsp agonist: -3%; Menin-MLL FL inh: -4.7; TRPML1 agonist: 0.6; gsp antag: 8%; ClpP mod: -0.2%

What do the screens show for `O=[N+]([O-])c1cc(S(=O)(=O)N2CCOCC2)ccc1N1CCCC1`?
TRPML1 blocker: -8; gsp agonist: -19%; Menin-MLL FL inh: 3.8; TRPML1 agonist: -0.2; gsp antag: 10%

How did CC1(C)NC(=O)N(CC(O)CNC23CC4CC(CC(C4)C2)C3)C1=O (configuration not stated) do in these assays?
TRPML1 blocker: 21; gsp agonist: 2%; Menin-MLL FL inh: -3.6; TRPML1 agonist: 0.2; gsp antag: 11%; ClpP mod: 28µM*

How did COc1ccc(OC)c(C2C(C(C)=O)=C(O)C(=O)N2Cc2cccnc2)c1 (configuration not stated) do in these assays?
TRPML1 blocker: 16; gsp agonist: -8%; Menin-MLL FL inh: -3.7; TRPML1 agonist: -0.2; gsp antag: -1%; ClpP mod: 0.4%

Results for CCCn1nnnc1NCc1ccc(N(CC)CC)cc1 ?
gsp agonist: -14%; Menin-MLL FL inh: 0.5; gsp antag: 6%; ClpP mod: 0.1%

Results for COc1cccc(COC(=O)c2ccc(-c3nnn(Cc4cccc(OC)c4)n3)cc2)c1 ?
TRPML1 blocker: 0; TRPML1 agonist: 2.3; ClpP mod: -0.5%

What do the screens show for `CCC(=O)Nc1cc(-c2nn(C)c(=O)c3ccccc23)ccc1OC`?
TRPML1 blocker: -10; gsp agonist: -14%; Menin-MLL FL inh: 3.7; TRPML1 agonist: 1.1; gsp antag: 0%; ClpP mod: -0.2%

Results for CC(Sc1nn(-c2ccccc2)c(=S)s1)C(=O)NCC1CCCO1 (configuration not stated) ?
TRPML1 blocker: -3; gsp agonist: 3%; TRPML1 agonist: -1.6; gsp antag: -6%; ClpP mod: 1.7%

What do the screens show for `CCCC(=O)Nc1cccc(Oc2nc(C)cc(C)c2C#N)c1`?
TRPML1 blocker: -6; gsp agonist: 18%; Menin-MLL FL inh: 0.5; TRPML1 agonist: -0.5; gsp antag: -1%; ClpP mod: -1.3%

Results for CCOC(=O)CC1(NC(=O)c2cc(COc3ccc(F)c(F)c3)on2)CCCCC1 ?
TRPML1 blocker: 19; gsp agonist: 2%; Menin-MLL FL inh: -3.0; TRPML1 agonist: 6.3; gsp antag: inconclusive; ClpP mod: -0.6%

Nothing new here: an excerpt of the list.
What do the screens show for `CCCC(=O)Nc1cccc(Oc2nc(C)cc(C)c2C#N)c1`?
TRPML1 blocker: -6; gsp agonist: 18%; Menin-MLL FL inh: 0.5; TRPML1 agonist: -0.5; gsp antag: -1%; ClpP mod: -1.3%

Results for CCOC(=O)CC1(NC(=O)c2cc(COc3ccc(F)c(F)c3)on2)CCCCC1 ?
TRPML1 blocker: 19; gsp agonist: 2%; Menin-MLL FL inh: -3.0; TRPML1 agonist: 6.3; gsp antag: inconclusive; ClpP mod: -0.6%
